NS1 function inh: blocks influenza NS1 protein function; S. cerevisiae slowed by influenza A NS1, growth recovery by OD600; Potency, µM (titrated, usually from 46.1 µM), for the others: top-dose activity, positive = more growth; 0.4% of 270,000 active; AID 2326; active means well fitted rising curve with a large enough effect; inconclusive means small, poorly fitted or top-dose-only effect; inactive means no such curve, though single readings can be large or run the other way; also: nearly all actives have a fitted effect of over 50% in size
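OD600 was taken as the measure of yeast growth restored by compound in an NS1-expressing S. cerevisiae strain. Cells had been washed out of glucose medium and diluted 1:100 into galactose -URA medium, pH 6.0.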
Cruzain inh Det: inhibitors of Trypanosoma cruzi cruzain with detergent. purified cruzain, Z-FR-AMC fluorescence, 0.01% Triton. 0.43% of 200,000 active. Potency, µM, without a hit: max response, negative = inhibition, actives largely listed as inhibitors. P25779;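 also: plate controls were neutral wells for no effect and buffer without enzyme for full effect; nearly all actives have a fitted effect of over 40% in size; top concentration of the series not given in the record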
Target sequence (P25779 123-467 limits assumed): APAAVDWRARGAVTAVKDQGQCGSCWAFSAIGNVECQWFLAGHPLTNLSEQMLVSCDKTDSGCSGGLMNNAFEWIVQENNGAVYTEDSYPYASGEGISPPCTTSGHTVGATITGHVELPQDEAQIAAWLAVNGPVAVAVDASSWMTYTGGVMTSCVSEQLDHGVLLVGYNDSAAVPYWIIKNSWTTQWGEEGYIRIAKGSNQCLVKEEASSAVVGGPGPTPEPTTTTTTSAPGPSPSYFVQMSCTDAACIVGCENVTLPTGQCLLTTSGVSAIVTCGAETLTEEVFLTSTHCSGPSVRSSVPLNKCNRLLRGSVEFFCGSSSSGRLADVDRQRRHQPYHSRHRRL
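Cysteine protease activity tested under reducing, mildly acidic conditions (100 mM sodium acetate pH 5.5, 5 mM DTT) plus 0.01% Triton X-100. Cruzain 1.5 nM; substrate Z-FR-AMC 2 uM; 15 min compound preincubation at room temperature.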
SARS PLP yeast: inhibitors of SARS-CoV papain-like protease in yeast | 0.19% of 330,000 active | Potency, µM (series often up to 32.9 µM), without a hit: at the top dose activity, positive = growth rescue | S. cerevisiae expressing SARS-CoV PLpro, growth rescue; control for the full effect not named in the record | AID 485353; active means well fitted rising curve with a large enough effect; inconclusive means small, poorly fitted or top-dose-only effect; inactive means no such curve, though single readings can be large or run the other way; also: 0% is about no effect; nearly all actives have a fitted effect of over 55% in size; growth read by luminescence after 48 h
Cruzain inh noDet: cruzain (T. cruzi) inhibition without detergent | P25779 | purified cruzain, Z-FR-AMC fluorescence, no detergent | Potency, µM, for the others: max response, negative = inhibition, actives largely listed as inhibitors | 2.3% of 200,000 active;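 also: plate controls were enzyme without inhibitor for no effect and buffer without enzyme for full effect; nearly all actives have a fitted effect of over 40% in size; top concentration of the series not given in the record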
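Purified cruzain at 1.5 nM, pre-incubated 15 min with compound at room temperature in 100 mM sodium acetate pH 5.5, 5 mM DTT, 0.00005% Triton X-100. Reaction started with 2 uM Z-FR-AMC; AMC fluorescence increase over 60 s gives rate.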
StopGo reporter: lowers the luciferase signal of an FMDV 2A StopGo reporter. 1.2% of 410,000 active. AID 1159524. Potency, µM (doses to about 57.9 µM), without a hit: at the top dose signal change, negative = less light. human cells with a luciferase reporter of 2A StopGo recoding; control for the full effect not named in the record; active = well fitted falling curve with a large enough effect; inconclusive = small, poorly fitted or top-dose-only effect; inactive = no such curve, though single readings can be large or run the other way; tested in HEK293T cells; also: % is scaled to controls: 0 for no effect and ±100 for the full control effect; nearly all actives have a fitted effect of over 45% in size; luciferase light after 4 h
Lassa entry inh: inhibitors of Lassa virus binding or cell entry. Lassa virus pseudotype entry inhibition, cell reporter; control for the full effect not named in the record. Potency, µM (doses to about 37.9 µM), without a hit: top-dose activity change, negative = inhibition, usual class: inhibitors. AID 540256. 1.2% of 300,000 active; active means well fitted inhibition curve with a large enough effect; inconclusive means small, poorly fitted or top-dose-only effect, or effect the other way; inactive means flat fitted curve, though single readings scatter; tested in HEK293 cells; also: % is scaled to controls: 0 for no effect and ±100 for the full control effect; nearly all actives have a fitted effect of over 50% in size; luciferase read-out
MARV entry inh: inhibitors of Marburg virus binding or cell entry; 1.8% of 300,000 active; AID 540276; Marburg virus pseudotyped entry inhibition, cell reporter; control for the full effect not named in the record; about a third of the inactives were read at about 46 µM; Potency, µM (highest dose often 37.8 µM), inactives show at the highest dose activity change, negative = inhibition, hits mostly inhibitors; active = well fitted inhibition curve with a large enough effect; inconclusive = small, poorly fitted or top-dose-only effect, or effect the other way; inactive = flat fitted curve, though single readings scatter; tested in HEK293 cells; about a fifth of its hits are not listed in these tables; also: % is scaled to controls: 0 for no effect and ±100 for the full control effect; luciferase read-out
RE007 growth inh: less growth of the S. pombe RE007 Vpr strain. S. pombe RE007 Vpr strain, BacTiter-Glo ATP luminescence, 24 h; control for the full effect not named in the record. Potency, µM (titrated, usually from 92.2 µM), for the others: at the highest dose activity change, negative = less growth. 0.21% of 360,000 active; active = well fitted falling curve with a large enough effect; inconclusive = small, poorly fitted or top-dose-only effect; inactive = no such curve, though single readings can be large or run the other way;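 also: % is scaled to controls: 0 for no effect and ±100 for the full control effect; nearly all actives have a fitted effect of over 50% in size; the assay follows cell death caused by Vpr and the record does not say whether a fall means rescue or toxicity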
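Fission yeast strain RE007, carrying one chromosomally integrated HIV-1 vpr copy, was seeded at OD 0.01 in PMG+AL medium with 23 nL pinned compound. After 24 h at 30 °C and 99% humidity, viability was read by BacTiter-Glo luminescence.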
Numbers without * were called inactive; ? = inconclusive; . = not tested or not shown; & = joins results of further samples; [ ] = another dose, or the depositor's remark. Unless noted, calls follow the shape of the dose curve; as a rule, active = well fitted curve in the direction sought with a large enough effect; inconclusive = small, poorly fitted or top-dose-only effect, or another doubt; inactive = no such curve, though single readings can be large; an effect the other way counts as inactive or inconclusive. Potency is read from the fitted curve at half-maximal effect.

SMILES	NS1 function inh	Cruzain inh Det	SARS PLP yeast	Cruzain inh noDet	StopGo reporter	Lassa entry inh	MARV entry inh	RE007 growth inh
CC(=O)c1cccc(NC(=O)CSc2nnc(-c3ccc(S(=O)(=O)N4CCCC4)cc3)o2)c1	1%	1.6%	1%	-30%	-18%	4%	1%&-20%	-12%
Cc1ccc(S(=O)(=O)c2nnn3c2nc(NC2CCCCC2)c2sccc23)cc1	.	-4.1%	.	11%	?	14%[46.1 µM]	.	.
O=S1(=O)NC(CC2=CCCCC2)C2CCCCC2O1 (stereo not drawn)	-4%	.	-10%	.	39%[activator]	.	.	11%
CC1CN(c2ccccc2)C(=O)CS1 (stereo not drawn)	4%	2.3%	-9%	-22%	-2%	1%	-10%	0%
O=C(O)c1ccccc1S(=O)(=O)CC(=O)N1CCCCC1	-1%	.	0%	.	1%	1%[46.1 µM]	2%[46.1 µM]	62%
CCOC(=O)c1c(NC(=O)C2CC(Cl)=CCC2C(=O)O)sc2c1CCCCC2 (stereo not drawn)	13%	.	-12%	.	12%	-15%[46.1 µM]	2%&2%[46.1 µM]	-1%
COc1ccc(/C=C2\SC(=O)N(CCC(=O)N(C)C3CCS(=O)(=O)C3)C2=O)cc1 (stereo not drawn)	21%	.	1%	.	51%[activator]	.	.	-7%
O=C(/C=C/c1ccco1)Oc1cc(Br)cc(/C=N/NC(=O)c2ccccc2O)c1	18%	-4.2%	.	14%	?	11µM*	?	-28%
O=C(CC1(O)C(=O)N(Cc2ccccc2Cl)c2ccccc21)c1ccco1 (stereo not drawn)	-46%	0.3%	23%	-19%	11%	-23%	?	0%
CN(C(=O)CSc1nnc(C2CC2)n1C)C1CCCc2ccccc21 (stereo not drawn)	.	.	-2%	.	-17%	-4%	0%	-10%
CC1CCN(S(=O)(=O)c2cc(C(=O)Nc3ccccn3)ccc2Br)CC1	.	.	-4%	.	?	-21%	-30%	44%
Cc1cc(-c2nnc(CCC(=O)N(C)CCc3ccccc3)o2)no1	-6%	.	0%	.	42%[activator]	.	.	-1%
COc1ccccc1OC(=O)c1ccc(SC)cc1OC	-27%	?	-5%	-20%	42%[activator]	10µM*	?	?
COc1cc(CNCCNC(=O)c2nonc2N)ccc1OCc1ccc(Cl)cc1	6%	.	0%	.	?	?	?	-14%
CNS(=O)(=O)c1cccc(C(=O)NCC(C)(C)N2CCCCC2)c1	5%	.	0%	.	-8%	11%	11%[46.1 µM]	-13%
CCN(C(=O)COC(=O)c1cc(S(=O)(=O)N2CCOCC2)c(Cl)cc1Cl)C1CCS(=O)(=O)C1 (stereo not drawn)	.	.	0%	.	-17%	-19%[46.1 µM]	?	10%
COc1ccccc1C(=O)NC(=S)Nc1cccnc1Cl	-7%	.	-23%	.	-28%	?	?	-24%
Cc1ccc(C)c(Cn2nnc(C(=O)NCc3ccc(Cl)cc3Cl)c2N)c1	.	0.4%	.	0%	?	10%[46.1 µM]	3%[46.1 µM]	.
COc1ccccc1C(=O)NCCn1ccc2ccccc21	-47%	-1.7%	-1%	-29%	-5%	-6%	?	-4%
O=C(/C=C/c1ccc([N+](=O)[O-])cc1)NCCSc1ccccc1	-49%	-9.9%	-27%	-3%	-8%	0%	-8%	-13%
O=C1c2ccccc2NC(c2ccccc2)N1c1ccc(O)cc1 (stereo not drawn)	-6%	1.9%	1%	0%	.	-18%	5%	3%
O=C(c1cc(-c2cccs2)nc2ccccc12)N1CCN(c2ccccc2)CC1	.	.	-1%	.	-12%	?	?	9%
CCOC(=O)NNC(=O)C12CC3CC(CC(C3)C1)C2	.	.	2%	.	-3%	-9%[46.1 µM]	11%[46.1 µM]	22%
CCC(C)[C@H](NC(=O)N1CCN(c2cccc(C(F)(F)F)c2)CC1)C(=O)OC (stereo partly drawn)	3%	-5.2%	-6%	?	-27%	-6%	?	12%
CC1CN(C(=S)SCCN2C(=O)CCC2=O)CC(C)O1 (stereo not drawn)	1%	.	0%	.	-9%	8%	6%[46.1 µM]	6%

Following part.
SMILES	NS1 function inh	Cruzain inh Det	SARS PLP yeast	Cruzain inh noDet	StopGo reporter	Lassa entry inh	MARV entry inh	RE007 growth inh
COc1cc(OC)cc(C(=O)NCCOc2ccccc2)c1	-15%	-7.4%	-10%	-1%	32%[activator]	-14%	?	25%
COc1ccccc1NC(=S)N1CCCc2ccccc21	.	.	5%	.	3%	9%	?	9%
CCCCn1c(N)c(N(CC)C(=O)CCc2ccccc2)c(=O)[nH]c1=O	5%	0.4%	13%	-4%	-7%	8%	-16%	0%
N/C(=N\OC(=O)CN1C(=O)c2ccccc2C1=O)c1ccc(Br)cc1	0%	.	1%	.	6%	21%	4%	7%
O=C(Nc1ccc(NC(=O)c2cc3ccccc3o2)cc1)c1ccco1	-2%	.	1%	.	9%	.	-8%[46.1 µM]	14%
FC(F)(F)c1ccccc1NC(=S)Nn1cnnc1	-44%	.	1%	.	-17%	.	.	-12%
CCn1ncc(/C=C/C(=O)Nc2c(C)nn(CC)c2C)c1C	2%	4.8%	4%	8%	3%	-8%[14.3 µM]	6%	-3%
O=C(NN1C(=O)c2ccccc2NC1c1ccc([N+](=O)[O-])o1)c1ccc([N+](=O)[O-])cc1 (stereo not drawn)	.	.	5%	.	0%	?	?	5%
O=C(Nc1ccc2c(c1)CCC2)c1cccc(F)c1	-31%	-3.5%	-71%	17%	1%	?	?	?
S=c1[nH]nc(-c2ccccn2)n1/N=C/c1ccccc1	13%	-3.2%	-1%	-13%	-7%	-3%	-1%	8%
CC(=O)CSc1nnc(-c2cnccn2)n1-c1ccccc1	-2%	0.8%	-1%	8%	-1%	24%	5%	-1%
Cc1nc(-c2ccccc2)nc2n[nH]c(N)c12	.	.	.	.	35%[activator]	12%	?	9%
O=[N+]([O-])c1cccc2cnccc12	.	.	.	.	-11%	-3%[46.1 µM]	0%[46.1 µM]	-18%
CSc1ccc(CNC(=O)c2ccc3c(c2)N(C)C(=O)C2CCCCN32)cc1 (stereo not drawn)	.	-11%	.	-5%	17%	29%[46.1 µM]	.	.
COc1cccc(Nc2nc3ccccc3n3cnnc23)c1	-9%	-5.8%	4%	?	1%	.	.	0%
Cc1ccc(-n2nnnc2CNC(=O)c2ccccc2S(C)(=O)=O)cc1C	.	4.6%	.	6%	-18%	?	.	.
CCOc1ccccc1NS(=O)(=O)c1c[nH]c(C(=O)OC)c1	-12%	.	-3%	.	22%	.	.	20%
CN(Cc1cn(-c2ccccc2)nc1-c1ccc(Cl)cc1)C(=O)CCC(=O)O	26%	-5.2%	-16%	11%	0%	11%	?	6%
Cc1nnc(NC(=O)c2ccccc2)s1	.	-1.5%	.	-3%	40%[activator]	?	.	.
O=C(NCc1ccncc1)c1cc(C(=O)C2CCCCC2)c[nH]1	.	.	0%	.	0%	8%	.	11%
COc1cc2c(cc1OC)C1=C(C#N)CC/C(=N\S(=O)(=O)c3ccccc3)N1CC2	-62%	-12%	?	?	-28%	.	-4%	12%
O=C(/C=C/c1ccc2c(c1)OCO2)N1CCN(c2n[nH]c(=O)[nH]c2=O)CC1	0%	.	0%	.	-4%	1%	-5%[46.1 µM]	4%
CN1CCCN(C(=O)c2cccc3ccccc23)CC1	-3%	.	-3%	.	-10%	.	.	-7%
COCCCNC(=O)c1cnc2sc(N3CCCCC3)nn2c1=O	.	-5.5%	.	-11%	-15%	0%[46.1 µM]	.	.
Cn1c(=O)[nH]c2cc(-c3noc(-c4cccc(Cl)c4)n3)ccc21	.	1.5%	.	?	27%	0%[46.1 µM]	.	.

More compounds follow:
SMILES	NS1 function inh	Cruzain inh Det	SARS PLP yeast	Cruzain inh noDet	StopGo reporter	Lassa entry inh	MARV entry inh	RE007 growth inh
C/C(=N\NC(=S)NC1CCCCC1)c1ccccc1	26%	-1.9%	7.9µM*	-1%	-23%	1%	-10%	3%
O=C1CN(C(=O)c2ccccc2)C(c2ccccc2)c2cc(Cl)ccc2N1 (stereo not drawn)	?	.	8%	.	-2%	-18%[46.1 µM]	-13%[46.1 µM]	-16%
Cc1cccc(OCCOC(=O)C2CCN(S(=O)(=O)c3cccs3)CC2)c1	-2%	2.3%	-2%	3%	-21%	1%	6%	2%
Cc1cccc(N2CCN(C(=O)CC(NC(=O)c3ccccc3)c3ccccc3)CC2C)c1 (stereo not drawn)	6%	-3.2%	-4%	5%	?	?	?	.
CC1CCCC(C)N1C(=O)COc1ccc(F)cc1 (stereo not drawn)	0%	.	-1%	.	-6%	3%	21%[46.1 µM]	-4%
COc1ccc(CNC[C@@H](CCCCN(C)Cc2ccc(OC)cc2)N2C[C@H](c3ccccc3)N(CCc3ccc(Cl)c(Cl)c3)C(=O)C2=O)cc1	6%	.	1%	.	?	.	.	33%
COc1ccc([N+](=O)[O-])c(OC)c1C(=O)NC(=O)Nc1c(F)c(F)c(F)c(F)c1F	7%	.	-1%	.	-10%	.	.	-9%
COCCN(C(=O)CSc1n[nH]c(-c2ccc(OC)cc2)n1)c1c(N)n(Cc2ccccc2)c(=O)[nH]c1=O	.	.	2%	.	-15%	-17%	-13%	3%
CCOc1cc(OCC)cc(C(=O)Nc2cccc(C(C)=O)c2)c1	-3%	-6.2%	1%	-6%	-14%	0%	3%	-5%
CN(C)CCCC1Sc2ccccc2Sc2ccccc21 (stereo not drawn)	.	.	.	.	?	?	?	-2%
O=C(OCC(F)(F)C(F)F)c1ccccc1C(=O)Oc1ccc(F)cc1F	-41%	-5.3%	-1%	3%	-5%	6%	-18%	-17%
COc1ccccc1N1CCN(S(=O)(=O)c2c(C)sc3ncn(CC(=O)Nc4ccc(C)cc4Br)c(=O)c23)CC1	.	-1.3%	.	-2%	8%	10%[46.1 µM]	-10%[46.1 µM]	.
O=C1CCCCN1CCc1c[nH]c2ccccc12	9%	-1.7%	10%	-9%	24%	?	16%[46.1 µM]	?
CSCCC(NC(=O)c1ccccc1Br)C(=O)NCC1CCCCC1 (stereo not drawn)	.	.	1%	.	11%	-2%[46.1 µM]	13%[46.1 µM]	0%
CCOc1ccccc1NC(=O)COC(=O)c1c(CC)noc1C	.	.	1%	.	-21%	10%[46.1 µM]	-8%	13%

This is a random part of the collection. Share with any hit: about 4.5%.
